StopGo FLuc = Primary qHTS Assay for Foot and Mouth Disease Virus Antivirals against NCGC Sytravon and CBC Compound Libraries: Firefly Luciferase Signal; HEK cells with a luciferase reporter of 2A StopGo recoding; Potency, µM (titrated, usually from 57.5 µM), for the others: at the highest dose signal change, negative = less light; actives 0.23% (n = 120,000); AID 1745856, 2022; active = well fitted falling curve with a large enough effect; inconclusive = small, poorly fitted or top-dose-only effect; inactive = no such curve, though single readings can be large or run the other way; also: nearly all actives have a fitted effect of over 60% in size; overnight with compound
2A Renilla = Primary qHTS Assay for Foot and Mouth Disease Virus Antivirals against NCGC Sytravon and CBC Compound Libraries: Renilla Luciferase Signal. HEK cells with a luciferase reporter of 2A StopGo recoding. Potency, µM (top dose mostly 57.5 µM), inactives show at the top dose signal change, negative = less light. actives 0.32% (n = 120,000). AID 1745857, 2022; active means well fitted falling curve with a large enough effect; inconclusive means small, poorly fitted or top-dose-only effect; inactive means no such curve, though single readings can be large or run the other way; also: nearly all actives have a fitted effect of over 55% in size; overnight with compound
Active calls of the source: *; ? = inconclusive; & = joins results of further samples; [ ] = remark or other dose. % is scaled to controls: 0 for no effect and ±100 for the full control effect; potency is read from the fitted curve at half-maximal effect.

| compound | StopGo FLuc | 2A Renilla |
| --- | --- | --- |
| CC(c1nnc(SCC(=O)Nc2ccc(Cl)cc2)n1C)N1C(=O)COc2ccccc21 (stereo not given) | 4% | 7% |
| COc1ccc(OC)c(NC(=O)c2c(NCc3sccc3C)sc3c2CCCCC3)c1 | -6% | 67%[activator] |
| CCCOC(=O)c1c(-c2cccc(C)c2)csc1NC(=O)c1ccncc1 | -4% | -2% |
| COc1cccc(-c2nc(CS(=O)(=O)CC(=O)Nc3ccc(F)cc3C)c(C)o2)c1 | -6% | -8% |
| O=S1(=O)C[C@H](N2CCN(Cc3ccc4c(c3)OCO4)CC2)[C@@H](S(=O)(=O)c2ccccc2)C1 | -1% | 0% |
| CCOc1ccc(C(=O)NC2(C(=O)OC)CCCCC2)cc1OC | -1% | 0% |
| O=[N+]([O-])c1ccc(Cl)c(/C=N/Nc2nc(Cl)c(Cl)cc2Cl)c1 | 71%[activator] | 1% |
| CCOC(=O)c1oc2c(c1C)/C(=N\O)CCC2 | 7% | 5% |
| COC(=O)C(CCSC)NC(=O)c1c(C)oc2ncn(CC(C)C)c(=O)c12 (stereo not given) | -7% | 22% |
| C=C(C)Cn1c(NCCC)nc2c1c(=O)[nH]c(=O)n2C | 2% | 0% |
| CCOC(=O)CCCNC(=S)Nc1c(C)cccc1C | 0% | 12% |
| CCOC(=O)c1ccc(NC(=O)COC(=O)c2cn(CC)c3nc(C)ccc3c2=O)cc1 | 0% | 11% |
| Cc1ccc(CN(CCc2ccccc2)C(=O)c2ccc(C#N)cc2)s1 | 37%[activator] | 1%[1.06 µM] |
| COc1ccc(F)cc1C(=O)/C=C/c1ccc(SC)cc1 | 0% | 113%[activator] |
| NC(=O)C1CCN(C(=O)c2cc(-c3ccc(-c4ccccc4)cc3)nc3ccccc23)CC1 | 248%[activator] | 72%[activator] |
| COc1cccc(C2CC(=O)Nc3c2c(=O)n(C)c2nc4ccccc4n32)c1OC (stereo not given) | -6% | -8% |
| CCN(Cc1ccc(C(N)=O)cc1)C1CCCC1 | -4% | -5% |
| CCn1nc(C(=O)N2CCNC(=O)C2)c2ccccc2c1=O | 9% | -5% |
| Cc1ccc(NC(=O)c2ccc(-c3ccccc3)s2)cc1 | 153%[activator] | -1% |
| COc1ccc(NC(=O)CCc2nnc3n(Cc4ccccc4Cl)c(=O)c4ccccc4n23)cc1 | -2% | -2% |
| Cc1ccc(NC(=S)NCCc2ccccc2)cc1 | 0% | 143%[activator] |
| COc1ccc(CC(=O)Nc2nonc2-c2ccc(OC)c(OC)c2)cc1 | -5% | 0% |
| CNC(=O)CN(C)c1nc(-c2ccncc2)nc2ccccc12 | -1% | 1% |
| CCCCn1c(=O)c2ccccc2n(CC(=O)Nc2cccc(C(F)(F)F)c2)c1=O | ? | -20% |
| CC(=O)N1C2C=CC(C2)C1(C(F)(F)F)C(F)(F)F (stereo not given) | 0% | 17% |
| COc1ccc(-c2nc(CN3CCCC3c3nnc4ccccn34)co2)cc1 (stereo not given) | 5% | -4% |
| Cc1cc(C)n(-c2nc3ccccc3nc2Nc2ccc(Cl)c(Cl)c2)n1 | -8% | -3% |
| Cn1cnc(S(=O)(=O)N2CCC(C(=O)Nc3ccc(Cl)c(C(F)(F)F)c3)CC2)c1 | ? | ? |
| COc1ccc(OC)c(NC(=O)Cn2cnc3onc(-c4ccc(Cl)cc4)c3c2=O)c1 | 14% | 33%[activator] |
| CSc1ccc(CN(C)C(=O)c2cc(F)cc(F)c2)cc1 | 0% | 79%[activator] |
| Nc1ccccc1C(=O)Nc1ccccn1 | 196%[activator] | 15% |
| Cc1ccccc1Cn1c(CN2CCC(C(=O)NCc3ccc(Cl)cc3)CC2)cc2ccccc21 | -11% | -10% |
| CCOC(=O)c1ccc(NC(=O)CCCn2nc(C)c3sc4ccccc4c3c2=O)cc1 | -8% | 87%[activator] |
| Cc1cccc(-c2nc(C#N)c(NCCCN(C)C)o2)c1 | 115%[activator] | 22% |
| O=C(CNC(=O)c1ccccc1F)Nc1ccc(Cl)c(S(=O)(=O)N2CCCCC2)c1 | -4% | 1% |
| COCCNC(=O)CCN1C(=O)c2cccnc2Oc2ccc(C)cc21 | 2% | 3% |
| CC(CNC(=O)c1ccc(Cn2c(=O)c3cccn3c3cccnc32)cc1)c1ccccc1 (stereo not given) | -14% | -5% |
| Cc1cccc2c(=O)cc(CSc3ccccc3NC(=O)c3cccc(F)c3)[nH]c12 | -18% | 50%[activator] |
| COc1cccc(C(=O)N2c3cc(C)ccc3C(C)(c3ccccc3)CC2(C)C)c1 (stereo not given) | ? | ? |
| Cc1cc2oc(=O)cc(COC(=O)c3n[nH]c4ccccc34)c2cc1Cl | 7% | -4% |

Looked up by compound from the entries so far (2):
| compound | StopGo FLuc | 2A Renilla |
| --- | --- | --- |
| Cc1cccc(-c2nc(C#N)c(NCCCN(C)C)o2)c1 | 115%[activator] | 22% |
| O=C(CNC(=O)c1ccccc1F)Nc1ccc(Cl)c(S(=O)(=O)N2CCCCC2)c1 | -4% | 1% |

Later entries:
| compound | StopGo FLuc | 2A Renilla |
| --- | --- | --- |
| CCOC(=O)c1ccc(Oc2c(C)oc3cc(OC(=O)c4ccc5c(c4)OCO5)ccc3c2=O)cc1 | 3% | -15% |
| Cc1c(-c2ccccc2)oc2c(C(=O)OCC(=O)OC(C)(C)C)cccc2c1=O | 14% | -5%[1.06 µM] |
| CCOc1ccc(C2NC(=O)NC(CS(=O)(=O)c3cc(Cl)ccc3OC)=C2C(=O)OC)cc1 (stereo not given) | -8% | 8% |
| CCNc1c(NC(=O)NCc2ccc(C)cc2)c(=O)oc2ccccc12 | 13% | 0% |
| Cc1ccc(OCC(O)Cn2c(N(C)Cc3ccccc3)nc3c2c(=O)[nH]c(=O)n3C)cc1 (stereo not given) | -10% | -14% |
| COc1ccc2nc(SCC(=O)N(Cc3ccccc3)C3CCS(=O)(=O)C3)[nH]c2c1 (stereo not given) | 7% | 22% |
| CCCSc1nn(CCCN(C)C)c2nc3sc4c(c3c(=O)n12)CCCC4 | ? | ? |
| c1ccc(N2CCN(c3nc(N4CCCCC4)c4nccnc4n3)CC2)cc1 | ? | ? |
| Cc1cc(-c2ccc(C)c(S(=O)(=O)NCC3CCN(Cc4ccccc4F)CC3)c2)on1 | -7% | 0% |
| Cc1ccc(Nc2nc(-c3cc4ccccc4oc3=O)cs2)cc1C | 31%[activator] | -8% |
| COC(=O)c1sccc1S(=O)(=O)N(CC(=O)Nc1ccc(C)c(F)c1)c1ccc(C)c(C)c1 | -8%&-25% | 121%&95%[activator] |
| Cc1ncc([N+](=O)[O-])n1CC(C)O (stereo not given) | -16% | -7% |
| Oc1cccc2[nH]ncc12 | -1% | -4% |
| Cc1cc(C)cc(NC(=O)C(Nc2ccc3oc(C)nc3c2)c2ccccc2)c1 (stereo not given) | 0% | 0% |
| Cc1cc(C)n(-c2nc3c(c(=O)n(CCN4CCCCC4)c(=O)n3C)n2C)n1 | 3% | -9% |
| CCOc1ccc2c(c1)c(C(C)=O)c(C)n2-c1ccccc1C | 4% | -9% |
| CN(CC(=O)Nc1ccc(Nc2ccccc2)cc1)C1=NS(=O)(=O)c2ccccc21 | ? | ? |
| COc1ccc(C)cc1NC(=O)c1oc2ccc(S(=O)(=O)N(C)C3CCCCC3)cc2c1C | -12% | -1% |
| CCOc1ccccc1NC(=O)Cn1nc2c3cc(F)ccc3n(Cc3cccc(C)c3)cc-2c1=O | -7% | 0% |
| CCCc1cc(=O)oc2cc(OS(=O)(=O)c3ccc(C(C)=O)cc3)ccc12 | ? | -6%[1.06 µM] |
| CCOC(=O)c1c(C)oc2nc(C)nc(NCC3CCN(Cc4cccc(C)c4)CC3)c12 | -13% | -12% |
| Cc1ccc(C)c(S(=O)(=O)c2nnn3c2nc(N2CCN(C)CC2)c2sccc23)c1 | 0% | -20% |
| Cc1cc(C)cc(NC(=O)Nc2c[nH]c(=O)[nH]c2=O)c1 | 3%&-6% | -1%&-5% |
| COc1ccc2nc(NC(=O)c3cc(-c4ccc(C)cc4)on3)sc2c1 | 5% | 1% |
| COc1ccc(Nc2cc(C)c3cc(NC(=O)Cc4c(F)cccc4Cl)ccc3n2)cc1 | -6% | 14% |
| Nc1cccc(-c2cc(C(=O)O)c3cc(Br)ccc3n2)c1 | 4% | -6% |
| CNC(=O)c1ccccc1OCc1coc(-c2ccc(OC)cc2)n1 | -11% | ? |
| COC(=O)[C@H]1C[C@@]2(N3CCCCC3)c3ccccc3N(S(=O)(=O)c3ccccc3)[C@H]2N1 | -6% | 17% |
| COc1ccc(NC(=O)C(C)n2c(C)c3cnn(-c4ccccc4)c(=O)c3c2C)cc1Cl (stereo not given) | -7% | -11% |
| Cc1ccc2c(-c3cc4ccccc4o3)cc(=O)oc2c1 | 9% | 13% |
| CCCCCN1C(C(=O)c2ccccc2)=C(NC(=O)c2ccc(OC)cc2)c2ccccc2S1(=O)=O | -10% | -9% |
| COc1ccc2c(c1)CCCN2C(=O)c1cc2cc(Cl)ccc2nc1C | ? | -9% |
| CN(C)CC1CCCN1 (stereo not given) | 8% | 6% |
| Cc1c2c(=O)n(-c3ccc(F)cc3)[nH]c2cc(=O)n1Cc1ccccc1 | -10% | -6% |
| CCCNC(=O)CSc1nc2ccccc2nc1Cc1ccc(Cl)cc1 | 20% | 10% |
| N#C/C(=C\c1c[nH]c2ccccc12)C(=O)OC1CCCCC1 | 66%[activator] | 16% |
| COC(=O)C1=C(c2ccccc2)c2ccccc2S(=O)(=O)N1CC(=O)Nc1ccc(OC)cc1OC | -4% | 36%[activator] |
| CCOc1ccc(C(=O)Nc2ccc(-c3nnc4n3CCCCC4)cc2)cc1OCC | -10% | -7% |
| O=C(c1ccccc1Cl)N1CCCC(c2nc3ccccc3o2)C1 (stereo not given) | ? | ? |
| Cc1ccc(CNS(=O)(=O)c2ccc(-c3cc(C(F)(F)F)on3)s2)cc1 | -4% | 10% |

One compound at a time (already shown):
`CCCNC(=O)CSc1nc2ccccc2nc1Cc1ccc(Cl)cc1` is listed as StopGo FLuc = 20%; 2A Renilla = 10%
`N#C/C(=C\c1c[nH]c2ccccc12)C(=O)OC1CCCCC1` is listed as StopGo FLuc = 66%[activator]; 2A Renilla = 16%

Further structures follow:
| compound | StopGo FLuc | 2A Renilla |
| --- | --- | --- |
| O=C(CSc1nc(=O)[nH]c2c1CCCC2)NCc1ccc(Cl)cc1 | -20% | -9% |
| Cc1cc(=O)[nH]c2nnc(SCC(=O)Nc3cc(C(F)(F)F)ccc3Cl)n12 | 44%[activator] | 68%[activator] |
| CCCCOC(=O)c1ccc(NC(=O)c2ccc3c(c2)CCN3S(C)(=O)=O)cc1 | -8% | -18% |
| COc1ccc(CNC(=O)c2cc3cc4ccc(C)cc4nc3o2)cc1 | 79%[activator] | 25% |
| C/C(=N/Nc1ccc(S(N)(=O)=O)cc1[N+](=O)[O-])c1ccccc1Cl | 3% | -3% |
| COc1ccccc1-c1c(C)oc2cc(OC(C)=O)ccc2c1=O | 46%[activator] | 8% |
| COC(=O)CCN(Cc1cccc(C)c1)CC(C)C | -6% | 10% |
| CCc1ccc(-n2ccc3nc(N4CCCC4)ncc3c2=O)cc1 | 66%[activator] | -3% |
| CCOc1ccccc1NC(=O)c1c(NC(=O)c2ccncc2)sc2c1CCC(C(C)(C)C)C2 (stereo not given) | -7% | -3% |
| O=C(CSc1nnnn1C1CCCC1)c1c[nH]c2ccccc12 | 92%[activator] | 0% |
| CC(=O)c1c(C)[nH]c(C(=O)C(C)OC(=O)c2cnccn2)c1C (stereo not given) | -3% | -11%[1.06 µM] |
| N#Cc1cc2c(nc1SCC(=O)NCc1ccccc1)CCCC2 | 0% | -2% |
| COc1cc(Cl)c(C)cc1NC(=O)Cn1ncc2c(=O)oc3ccccc3c21 | ? | -3% |
| Cc1c(C(=O)NCc2cccc(Br)c2)oc2ccc3c(c12)C(=O)CC(C)(C)O3 | 0% | 45%[activator] |
| COc1cccc(CNC(=O)c2ccc(CS(=O)Cc3ccc(Cl)cc3)o2)c1 (stereo not given) | -11% | 6% |
| COc1ccc(C(=O)Nc2oc3ccccc3c(=O)c2-c2ccc(C)cc2)cc1OC | 39%[activator] | 3% |
| CCC(=O)N1CCc2cc(OC)c(OC)cc2C1COc1ccccc1OC (stereo not given) | 5% | 7% |
| COC(=O)c1scc(-c2ccc(C)cc2)c1S(=O)(=O)N1CCN(c2ccc(F)cc2)CC1 | -15% | 143%[activator] |
| CN(C)c1ccc(N=NS(=O)(=O)O)cc1 | -17%[115 µM] | ? |
| Cc1noc(C)c1COc1ccc(C(=O)Nc2ccccc2)cc1 | 47%[activator] | 16% |
| O=C(NCc1cccs1)c1ccc(Cn2c(SCc3ccccc3)nc3cccnc32)cc1 | 8% | -24% |
| CCC(=O)N1CCN(c2ccc(Cl)cc2NC(=O)c2ccccc2Br)CC1 | -23% | 2% |
| Cc1ccc(C)c(NC(=O)Cc2ccsc2)c1 | 6% | 11% |
| Cc1ccc(Cl)cc1N1CCN(C(=O)CCNS(=O)(=O)c2ccc3c(c2)CCN3C(=O)C2CC2)CC1 | -17% | -4% |
| O=C(CSc1ncnc2nc[nH]c12)NCCc1c[nH]c2ccc(F)cc12 | 13% | 0% |
| C#CCNC(=O)C(C)N1CCC(CO)CC1 (stereo not given) | 8% | 4% |
| CCOc1ccccc1N1CCN(S(=O)(=O)c2cnn(CC)c2)CC1 | -12% | -6% |
| CC(C)(C)c1ccc(C(=O)Nc2onc3c2CCCC3)cc1 | -3% | 12% |
| CCCCCC(C=O)CCC(=O)c1ccc(Br)cc1 (stereo not given) | 30% | 9% |
| CCc1cccc(CC)c1NC(=O)COC(=O)c1cc(OC)c(OC)cc1OC | 0% | 20% |

These rows are one share of the data, so the mix of outcomes need not match the whole.
